High-throughput results (PubChem BioAssay)
HSD17B inh = HSD17B dehydrogenase inhibition; hit rate 7.6% among 75,000; Potency, µM (highest dose often 57.1 µM), for inactives: at the top dose activity change, negative = inhibition, hits mostly inhibitors; AID 893; recombinant HSD17B10, NADH fluorescence kinetic; many of its hits are not listed in these tables; active = well fitted inhibition curve with a large enough effect; inconclusive = small, poorly fitted or top-dose-only effect; inactive = no such curve, though single readings can be large or run the other way;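 note: the protocol describes HADH2 (HSD17B10) and not the HSD17B4 of the title; nearly all actives have a fitted effect of over 70% in size; most hits overshoot -100% by far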
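His-tagged E. coli-expressed HADH2 at 20 nM in 100 mM Tris-HCl pH 9.0 with 0.01 % Tween-20, preincubated 15 min with compound at room temperature. Reaction with 1 mM NAD+ and 90 uM beta-hydroxybutyryl coenzyme A; NADH fluorescence (360/450 nm) read kinetically over 4 min, last minus first point.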
Starred values were filed as active, the others as inactive; ? = inconclusive; [ ] = dose if it differs, or a comment. % is set by controls: 0 for no effect and ±100 for the full control effect; potency is the fitted concentration of half-maximal effect.

SMILES	HSD17B inh
CN/C=C1\C(=O)C(C)(C)Oc2ccc3ccc(=O)oc3c21	-3%
CCOC(=O)c1[nH]c(C)c(C(=O)OCCN2C(=O)c3ccccc3C2=O)c1C	-4%
CC(=O)OC[C@@H]1O[C@H](C/C=N\O[C@@H](C)CN2CCCc3nc(C)c(C)cc32)C=C[C@@H]1OC(C)=O	?
Cc1nnc(SCC(=O)NCCOc2ccc(Cl)cc2)n1-c1ccccc1	0%
N#Cc1ccc(-c2nnnn2-c2ccc3c(c2)OCO3)cc1	-8%
CC(=O)C1=C(O)C(=O)N(Cc2ccco2)C1c1ccccc1 (stereo unspecified)	-16%
Cc1onc(-c2ccccc2)c1C(=O)Nc1ccc2c(c1)OCO2	3%
COc1ccc(C2C(C(C)=O)=C(O)C(=O)N2CCN(C)C)cc1OC (stereo unspecified)	5%
CCn1c(=O)cc(OCC(=O)NCCCN2CC(C)CC(C)C2)c2ccccc21 (stereo unspecified)	-5%
COCCCNC(=O)c1cccc(C(=O)NCCCOC)c1	5%
CCOc1ccc(NC(=O)N(C2CCCCC2)C2CCN(C(C)=O)CC2)cc1	3%
Cc1cc(C)nc(SCc2ccc(C(=O)O)o2)n1	-1%
C/C(Cl)=C/CN1C(=O)C2C3C=CC(C3)C2C1=O (stereo unspecified)	6%
COc1ccc(C(c2nnnn2CC2CCCO2)N2CCN(c3cccc(C)c3C)CC2)cc1 (stereo unspecified)	6%
Cc1ccc(CNC(=O)c2cn(C3CCCCC3)c(=O)c3c2c2ccccc2n3C)o1	?
c1coc(CNc2ncnc3nc[nH]c23)c1	-4%
O=C(CSc1nccc(=O)[nH]1)N1c2ccccc2CCc2ccccc21	-10%
O=C1C(Cl)=C(NCC2CCCO2)C(=O)N1c1ccccc1 (stereo unspecified)	0%
O=C1CCCCCC1C1(O)C(=O)Nc2ccc(Br)cc21 (stereo unspecified)	0%
Cc1ccn(CCSCC(=O)O)n1	-8%
CCOC(=O)C1CCN(C(=O)COc2cc(C)c(Br)c(C)c2)CC1	-10%
COc1ccc(O[C@H]2C=C[C@@H](c3ccccc3)O[C@H]2COC(=O)CC/C(C)=N/O[C@@H]2O[C@H](COC(C)=O)[C@H](OC(C)=O)[C@H](OC(C)=O)[C@H]2OC(C)=O)cc1	2%[11.4 µM]
O=C(NCC(=O)N(Cc1ccc(F)cc1)C(C(=O)NC1CCCC1)c1ccco1)c1ccco1 (stereo unspecified)	7%
Cc1ccc2cc(CN(Cc3ccc4c(c3)OCO4)Cc3nnnn3Cc3ccco3)c(=O)[nH]c2c1C	32µM*
Cc1cccc(C)c1NC(=O)CSc1nnc(-c2ccoc2C)n1CCc1ccccc1	-13%
COc1ccc(-c2cn3cccnc3n2)cc1NC(=O)C1CCCC1	?
CCOC(=O)C1=C(C)NC2=C(C(=O)c3ccccc32)C1c1cccnc1 (stereo unspecified)	9%
COc1ccccc1OCC(=O)Nc1oc(-c2ccccc2)c(-c2ccccc2)c1C#N	-5%
O=C(Nc1cccc(C(=O)N2CCCC2)c1)c1ccccc1	4%
NC(=O)N[C@H]1NC(=O)NC1=O	12%[25.6 µM]
CCN(CC)CCNC(=O)c1nn(-c2ccc(C)cc2)c(=O)c2c1c1ccccc1n2C	-30%
CCOc1cc(-c2nc(-c3ccccc3OC)no2)cc(OCC)c1OCC	32µM*
COCCn1c(SCC#N)nnc1-c1ccccc1	-4%
COC(=O)CSc1cc(C(=O)c2nccn2C)c2ccccc2n1	1%
CCOC(=O)c1sc(NC(=O)CSc2nncs2)c(C(=O)OCC)c1C	4%
O=C(O)c1ccc(NS(=O)(=O)c2ccc(Cl)c(Cl)c2)cc1O	-11%
CC1(C)CC(=O)N(CC(=O)NC2CCCC2)c2ccccc2S1(=O)=O	-3%
COc1ccc(NC(=O)N2CCC3(CC2)CCN(C(=O)c2csnn2)CC3)cc1	13%
C=CCN1C(=O)CN=C1Nc1ccc(OC)cc1OC	89%[activator]
Cc1nc2c(=O)oc3ccccc3c2n1-c1ccccc1	5%
c1ccc(-c2nc(N3CCOCC3)c3ccccc3n2)nc1	1%
CCN(CCCNC(=O)c1[nH]c(C)c(C(C)=O)c1C)c1cccc(C)c1	7%
Cc1ccc(S(=O)(=O)NCCNC(=O)N2CCOCC2)cc1	3%
CCCn1c(C)nc2c(NCc3ccccc3)nc(C)nc21	-4%
O=C(O)c1cccc(S(=O)(=O)N2CCOCC2)c1	14%
CCOC(=O)c1cnc2nc[nH]n2c1=O	-3%
C=CCNCc1cccn1-c1sc2c(c1C#N)CCCC2	-3%
O=C(CSc1nnc(-c2ccco2)o1)N1CCOCC1	3%
Cc1ccc2c(c1)-c1c(cnn1CC(=O)N1CCCN(Cc3ccccc3F)C1)CO2	-1%
Cc1ccc(O)c(N)c1	-23%
C=CCn1c(SCC(=O)NC2CCCCC2)nnc1C(C)NC(=O)c1cccs1 (stereo unspecified)	9%
O=C(c1cccnc1)N1CCc2ccccc21	-4%
CC(=O)Nc1ccc2nc(SCC(=O)O)sc2c1	-12%
Cc1ccc(N2CN=c3s/c(=C\c4ccccn4)c(=O)n3C2)cc1	-4%
Cc1cc(C)cc(NC(=O)C2CCN(c3nc(C)cc(C)n3)CC2)c1	-8%
Cc1ccc2nc(-c3cccc(NC(=O)c4ccc5c(c4)OCCO5)c3)oc2c1	25µM*
Cc1cccc(-c2ccc(C=Nc3c(C)n(C)n(-c4ccccc4)c3=O)o2)c1	-7%
CC(C)(C)c1ccc(S(=O)(=O)n2c(CN3CCOCC3)nc3ccccc32)cc1	-2%
CC(=O)c1ccc(N2C(=O)C3C(C2=O)C(C(=O)c2ccc(Cl)cc2)N2CCCC32)cc1 (stereo unspecified)	?
CCCCN1CC(O)=C(c2nc3ccccc3s2)C1=N	3%
Next section:
SMILES	HSD17B inh
Cc1ccc(C2NC(=O)NC(O)(C(F)(F)F)C2C(=O)c2ccccc2)o1 (stereo unspecified)	-4%
COC(=O)c1c(NC(=O)CCCC(=O)O)sc(C)c1C	-9%
O=C(O)CC1C(=O)NCCN1C/C=C/c1ccccc1 (stereo unspecified)	-4%
COc1cccc(C(c2sc3nc(C)nn3c2O)N2CCN(c3ccccc3F)CC2)c1 (stereo unspecified)	-2%
COc1cc2c(cc1OC)[C@@H]1C(=O)c3ccc4c(c3O[C@@H]1CO2)C=CC(C)(C)O4	-8%
COc1ccc(N2C(=O)CC(N3CCN(C4CCc5ccccc5C4)CC3)C2=O)cc1 (stereo unspecified)	1%
CN1CCN(c2ncnc3ccc(-c4ccc(C(=O)N(C)C)cc4)cc23)CC1	-12%
N#Cc1c(NC(=O)CCC(=O)O)ccc2ccccc12	4%[11.4 µM]
O=C(CCSc1ccccc1)Nc1ncccn1	-2%
Cc1nc2ccccc2c2oc(C(=O)N3CCc4ccccc4C3)cc12	?
OCC(CBr)(CBr)CBr	-3%
O=C(O)CSC1CC(=O)N(c2ccc(Cl)c(Cl)c2)C1=O (stereo unspecified)	-16%

Shown as comma-separated lines: 6 of the compounds above
Compound,HSD17B inh
CN1CCN(c2ncnc3ccc(-c4ccc(C(=O)N(C)C)cc4)cc23)CC1,-12%
COC(=O)c1c(NC(=O)CCCC(=O)O)sc(C)c1C,-9%
OCC(CBr)(CBr)CBr,-3%
O=C(O)CSC1CC(=O)N(c2ccc(Cl)c(Cl)c2)C1=O (stereo unspecified),-16%
O=C(CCSc1ccccc1)Nc1ncccn1,-2%
Cc1ccc(C2NC(=O)NC(O)(C(F)(F)F)C2C(=O)c2ccccc2)o1 (stereo unspecified),-4%

(continued)
SMILES	HSD17B inh
COc1cccc([C@@H]2Oc3ccc(OC)cc3/C(=N/O[C@@H](C)c3cn([C@H]4COC[C@H]4O)nn3)[C@@H]2O)c1	-7%[11.4 µM]
C/C(N)=C(/C#N)C(=O)COC(=O)CSc1ccccc1	0%
COc1ccc2nc(SCC(=O)Nc3ccccc3C#N)[nH]c2c1	-2%
CN(C)S(=O)(=O)c1ccc(N2CCN(S(=O)(=O)c3ccc(F)cc3)CC2)c(Cl)c1	-5%
COc1ccc(S(=O)(=O)N2CCSC2c2ccc(N)cc2)cc1 (stereo unspecified)	5%
CC(C)CCOc1ccc(C2(C)NC(=O)N(CN3CCOCC3)C2=O)cc1 (stereo unspecified)	4%
CCOC(=O)C1=C(C)Nc2nnnn2C1c1ccc(OC)c(Br)c1 (stereo unspecified)	0%
Cc1cc(S(=O)(=O)NC2CCCCC2)ccc1OCC(=O)NCc1ccccn1	-11%
C=CCCC	-5%
O=C(/C=N/O)NCC1CCNCC1	-5%
C/C(=C\C(=O)c1ccncc1)Nc1ccccc1O	-8%
CN=C1N[C@H](c2ccccc2)N(c2ccccc2)S1	2µM*
CN1CCN(S(=O)(=O)c2ccc(Sc3nnc(-c4cccs4)n3-c3ccccc3)nc2)CC1	8%
CC1OC(Nc2ccc(OC(F)(F)F)cc2)C(O)C(O)C1O (stereo unspecified)	0%
CCOC(=O)c1c(NC(=O)CSc2n[nH]c(N)n2)sc(CC)c1C	-13%
CCCn1c(N2CCN(CC(=O)Nc3ccc4c(c3)OCCO4)CC2)nc2ccccc21	-4%
Cc1ccc(C(=O)NCC2CCCO2)cc1N1CCCC1=O (stereo unspecified)	7%
O=C1Nc2ccc(I)cc2/C1=C/c1cc(Br)c(O)c(Br)c1	7.9µM*
COc1ccc(OCC(=O)N2CCN(C(=O)Cc3ccccc3)CC2)cc1	11%
Cc1nc(SCc2nnc(-c3ccc(Cl)cc3)o2)c2c3c(sc2n1)CCC3	5%
CC(C)(C)C(=O)C(Oc1cccc2nonc12)n1cncn1 (stereo unspecified)	-8%
CC1CCN(S(=O)(=O)c2cccc(C(=O)NCc3cccs3)c2)CC1	-3%
O=C1c2ccccc2S(=O)(=O)N1CCOc1ccccc1	-9%
Cc1cc(C)cc(NC(=O)N2CCC(NC(=O)c3ccc(F)cc3)CC2)c1	10%
CC(=O)NC(CCS(C)(=O)=O)C(=O)Nc1cc(C)on1 (stereo unspecified)	4%
CC(C)n1c(N2CCN(C(=O)c3cccs3)CC2)nc2ccccc21	-2%
FC(F)(F)c1ccc(N2CCN(c3ncnc4c3nnn4Cc3ccccc3)CC2)nc1	?
CCn1c(CNC(=O)COc2c(C)cccc2C)nnc1SCC(=O)Nc1nccs1	5%
COC(=O)C1=C(C)N(C)C(=O)NC1c1ccccc1 (stereo unspecified)	0%
CCCCNc1ncnc2c1cnn2-c1ccccc1	-14%
COc1cccc2c1OC1(C)CC2NC(=O)N1c1cccc(C(=O)Nc2ccc3c(c2)OCCO3)c1 (stereo unspecified)	-3%
Clc1ccc(NCc2nnc3n2CCCCC3)cc1	7%
O=C(NCc1nc(-c2ccccc2)no1)c1ccc(Br)o1	6%
CCN1/C(=C(\O)c2ccccc2)C(=O)c2ccccc2S1(=O)=O	-1%
Cc1ccccc1-n1c(N)cc(=O)[nH]c1=S	5%
Cc1ccc(-c2nnn(CC(=O)N(CC(=O)NC(C)C)c3cnc4ccccc4c3)n2)o1	4%

In the list so far, these contain a CF3 group.
SMILES	HSD17B inh
Cc1ccc(C2NC(=O)NC(O)(C(F)(F)F)C2C(=O)c2ccccc2)o1 (stereo unspecified)	-4%
CC1OC(Nc2ccc(OC(F)(F)F)cc2)C(O)C(O)C1O (stereo unspecified)	0%
FC(F)(F)c1ccc(N2CCN(c3ncnc4c3nnn4Cc3ccccc3)CC2)nc1	?

Individual results from the entries so far:
Entry for `CC(=O)C1=C(O)C(=O)N(Cc2ccco2)C1c1ccccc1` (stereo unspecified) in HSD17B inh: -16%
Entry for `COC(=O)C1=C(C)N(C)C(=O)NC1c1ccccc1` (stereo unspecified) in HSD17B inh: 0%

Remaining list, next part.
SMILES	HSD17B inh
CCOC(=O)N1CCC(N(C(=O)Nc2cccc(OC)c2)C(C)CC)CC1 (stereo unspecified)	4%
CCOC(=O)C(C)n1cnc2c(nnn2Cc2ccc(Cl)cc2)c1=O (stereo unspecified)	-2%
COc1ccc(CCNS(=O)(=O)c2ccc3c(c2)OCCO3)cc1	9%
O=C(NCCSCc1ccco1)Nc1ccccc1	-3%
O=C(CSc1ncnc2c1oc1ccccc12)N1CCN(c2ccccc2)CC1	9%
CCOc1cc(/C=N/n2cnnc2)ccc1O	2%
CCOc1ccc(C2CC(c3cccc(C)c3)n3nc(N)nc3N2)cc1 (stereo unspecified)	1%
Cc1cc(C)n(C(=O)C23CC4CC(CC(C4)C2)C3)n1	-1%
CC(=O)N(C(C)=O)c1c(N2CCOCC2)c2ccccc2oc1=O	2%
COc1ccc(NC(=O)c2ccc(CN3CCN(c4ccccc4)CC3)cc2)cc1OC	?
CCN(CC)CCCNC(=O)c1cn(CCOC)c(=O)c2c1c1ccccc1n2C	32µM*
COc1ccc(OC)c(C2CC(=O)N3CN(c4ccccc4)CSC3=C2C#N)c1 (stereo unspecified)	?
O=c1c2c3nc4ccccc4nc3n(-c3cccc(F)c3)c2ncn1Cc1ccc2c(c1)OCO2	0%
COC(=O)C1=C(C)N(C)C(C)=C(C(=O)OC)C1c1ccsc1	17%
CCCCOc1ccc(C(=O)NCc2ccccn2)cc1	4%
CC(=O)OC1CC2(C)C(=O)CCC2C2CCc3cc(O)ccc3C12 (stereo unspecified)	9%
C/C(N)=C(/C#N)C(=O)CSc1nnc(-c2ccc(OC(F)F)cc2)o1	-4%
CCNc1ccc(C(=O)OCC)cc1NC(=O)c1cc(S(=O)(=O)N2CCOCC2)ccc1C	0%
CCN(C(=O)c1cn(CC)c(=O)c2cc(OC)c(OC)cc12)c1ccccc1C	3%
CCN(CCCNC(=O)CN(C)S(=O)(=O)c1cccc2nsnc12)c1cccc(C)c1	-5%
O=C(Nc1nccs1)c1cccc(NC(=O)C2CC2)c1	-3%
N#C/C(=C\c1ccc(O)c(O)c1)C(=O)NCc1ccccc1	?

These rows are one share of the data; the hit share may differ from the screen's.
